# High-throughput results deposited in PubChem BioAssay by several laboratories.
# VCAM-1 inhibition – inhibitors of TNFa-induced VCAM-1 surface display, cell-based, plate reader, pooled HUVEC, TNFa stimulus (AID 454) | inhibition, % at 5 µM | 0.2% of 10,000 active | HUVEC TNFa-induced VCAM-1 surface immunofluorescence, plate reader; numbers were filed only for top-ranked candidate wells;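 active means compound among top-ranked inhibitors of TNF-induced VCAM-1 adhesion protein staining, with the hit upheld by image or statistical review; inactive means the rest, including hits rejected on review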;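 further: 0% = TNFa with vehicle and 100% = cells without TNFa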
# VCAM-1 down imaging – inhibitors of TNFa-induced VCAM-1 surface display, imaging, high-content imaging, pooled HUVEC, TNFa stimulus (AID 456) | HUVEC TNFa-induced VCAM-1 surface expression, immunofluorescence imaging; numbers were filed only for top-ranked candidate wells | one-dose inhibition, % at 5 µM; IC50 in µM for titrated hits | 0.2% of 10,000 active;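 active means top tenth filtered wells with inhibition above zero that passed visual or statistical confirmation; inactive means the rest, including hits rejected on review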;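 further: 0% = stimulated vehicle wells and 100% = unstimulated cells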
# FPR binder – human FPR ligands by binding competition, primary screen, cell-based, FPRL1 counter-screen, flow cytometry. fMet-Leu-Phe receptor (Homo sapiens), P21462. FPR-expressing cells, fluorescent ligand binding. inhibition, %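 (tested at 6.7 µM)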. 0.74% of 24,000 active. AID 440, 2006;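 further: 0% = buffer wells and 100% = receptor blocker peptide wells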
# Target sequence (P21462 whole entry, looked up): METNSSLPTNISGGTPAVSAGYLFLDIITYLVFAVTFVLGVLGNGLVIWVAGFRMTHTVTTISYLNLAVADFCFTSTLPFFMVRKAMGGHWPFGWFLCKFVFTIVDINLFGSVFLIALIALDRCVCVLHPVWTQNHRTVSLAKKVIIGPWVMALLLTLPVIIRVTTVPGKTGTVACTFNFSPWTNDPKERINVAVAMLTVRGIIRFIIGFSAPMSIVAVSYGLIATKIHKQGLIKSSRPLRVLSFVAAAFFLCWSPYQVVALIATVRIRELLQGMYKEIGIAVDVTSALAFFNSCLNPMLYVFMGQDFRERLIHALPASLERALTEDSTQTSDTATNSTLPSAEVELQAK
# FPRL1 binder – human FPRL1 ligands by binding competition, primary screen, cell-based, FPR counter-screen, flow cytometry; 0.3% of 24,000 active; inhibition, %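 (tested at 6.7 µM)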; FPRL1-expressing cells, fluorescent ligand binding inhibition; N-formyl peptide receptor 2 (Homo sapiens), P25090;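 further: 0% = buffer alone and 100% = receptor blocker peptide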
# Target sequence (P25090 whole entry, looked up): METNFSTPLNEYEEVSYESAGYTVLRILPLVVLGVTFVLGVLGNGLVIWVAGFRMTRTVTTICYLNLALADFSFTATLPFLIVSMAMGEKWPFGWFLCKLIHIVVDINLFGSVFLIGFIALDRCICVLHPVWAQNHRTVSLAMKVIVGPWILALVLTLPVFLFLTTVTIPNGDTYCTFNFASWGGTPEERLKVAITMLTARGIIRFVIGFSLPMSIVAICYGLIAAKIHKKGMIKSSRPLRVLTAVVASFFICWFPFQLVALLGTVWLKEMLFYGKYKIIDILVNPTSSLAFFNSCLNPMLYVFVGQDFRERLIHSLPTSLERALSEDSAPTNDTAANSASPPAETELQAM
# VCAM-1 augmentation – enhancers of VCAM-1 display on endothelial cells, imaging, high-content imaging, pooled HUVEC, TNFa stimulus (AID 457); calls only; Pooled HUVEC, TNFa-induced VCAM-1 immunofluorescence imaging; hits of this screen are not shown here; 0.2% of 10,000 active;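 active means a top-ranked rise in VCAM-1 staining upheld on image or statistical review; inactive means the rest, including candidates rejected on review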;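 further: compounds tested at 5 µM in the well; cells exposed to compound for 24 hours before fixing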
# Numbers without * were called inactive; i = inactive; nt = not tested or not shown.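 How the source made its calls, unless noted: active means mean above 30%; inconclusive means self-fluorescent; inactive means the rest.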 These rows are one share of the data. The share of hits here may be higher or lower than overall.
# Below each compound: VCAM-1 inhibition, VCAM-1 down imaging, FPR binder, FPRL1 binder, VCAM-1 augmentation
> O=S(=O)(c1ccc(Br)s1)n1cccn1
    nt, nt, 3, 0, nt
> Cc1cc(C)n2nc3nc(N4CCCCC4)nc(-c4ccco4)c3c2n1
    i, i, 8, 0, i
> O=C(C1CCCN1S(=O)(=O)c1ccc(Cl)c(Cl)c1)N1CCOCC1 (configuration not stated)
    nt, nt, -2, -1, nt
> O=C(Nc1c(C(=O)NCc2ccco2)cnn1-c1ccccc1)c1ccc(F)cc1
    i, i, 0, -6, i
> COc1ccc(N(CC(=O)Nc2cc(C(=O)O)ccc2C)S(=O)(=O)c2c(C)noc2C)cc1
    nt, nt, 4, 2, nt
> COc1cccc(CNC(=O)Cn2cccc2)c1
    nt, nt, 2, 4, nt
> Cc1ccc(-c2nn3c(C)nnc3s2)cc1NC(=O)C(C)C
    nt, nt, -4, -4, nt
> CC1CCc2cc(F)cc3c(O)c(C(=O)Nc4cnccn4)c(=O)n1c23 (configuration not stated)
    i, i, 4, 5, i
> O=C(NCCN1CCN(c2ccccc2)CC1)c1ccc(NC(=O)C2CCCO2)cc1 (configuration not stated)
    i, i, -8, 4, i
> O=C(NCCN1C(=O)C2C3C=CC(C3)C2C1=O)NCc1ccccc1 (configuration not stated)
    nt, nt, -6, -1, nt
> O=C(CN1C(=O)COc2ccccc21)NCCCN1CCc2ccccc2C1
    i, i, 0, -3, i
> O=C(NCCC1=CCCCC1)C1CC(=O)N(C2CCCCC2)C1 (configuration not stated)
    nt, nt, 6, 10, nt
> COC(=O)c1cc2c(s1)CS(=O)C2 (configuration not stated)
    nt, nt, 2, -5, nt
> COc1ccc(CCNC(=O)C2CCCN(C(=O)N(C)C)C2)c(OC)c1 (configuration not stated)
    nt, nt, -1, 0, nt
> Cc1ccc2cc3cc(C(=O)N4CCCCC4C)oc3nc2c1 (configuration not stated)
    nt, nt, 4, -2, nt
> Cc1noc(C)c1S(=O)(=O)N(CC(=O)Nc1ccc2c(c1)OCCO2)c1ccc(C(C)C)cc1
    nt, nt, 1, -5, nt
> CC1CCc2c(sc3nc(SCc4nc(-c5ccccc5)no4)n(C)c(=O)c23)C1 (configuration not stated)
    nt, nt, -3, -6, nt
> O=C(CCSc1nccn1Cc1ccccc1)N1CCOCC1
    i, i, -3, 0, i
> CCOC(=O)N1CCN(C(=O)c2ccc3c(=O)n(Cc4ccc(OC)cc4)c(=S)[nH]c3c2)CC1
    i, i, 3, 6, i
> CCCCNC(=O)CC1N=C2c3ccccc3N=C(SCC(=O)Nc3cccc(OC)c3)N2C1=O (configuration not stated)
    nt, nt, -2, -2, nt
> CCC(Sc1nc2n[nH]c(C)c2c(=N)n1-c1cccc(Cl)c1C)C(=O)N(CC)CC (configuration not stated)
    nt, nt, 2, -3, nt
> O=CN1CCN(C(C(=O)NC2CCCC2)c2ccc(Cl)cc2)CC1 (configuration not stated)
    nt, nt, 3, 2, nt
> CC(=O)N1CCN=C1SCc1ccccc1F
    nt, nt, -1, -3, nt
> CCOC(=O)c1c(N)c(C#N)nn1-c1ccccc1C(=O)OC
    i, i, 7, 1, i
> Cn1c(=O)c2c(nc(NCC3CCCO3)n2C)n(C)c1=O (configuration not stated)
    i, i, 0, -4, i
> O=C(CCC(=O)N(c1cccc(F)c1)C(C(=O)NC1CCCC1)c1ccncc1)Nc1cccnc1 (configuration not stated)
    i, i, -4, -1, i
> N=C1C(c2nc3ccccc3c(=O)[nH]2)=C(O)CN1CCc1ccccc1
    nt, nt, 3, -1, nt
> CC(NC(=O)c1noc2c1CCCC2)c1ccccc1 (configuration not stated)
    nt, nt, -2, -1, nt
> CCOc1cc(C2C(C(=O)O)c3cc(OCC)c(OCC)cc3C(=O)N2C)ccc1O (configuration not stated)
    nt, nt, 4, 5, nt
> COc1ccc(OCCSc2nc3ccccc3n2CC(=O)O)cc1
    i, i, 2, -3, i
> Cn1c(C(=O)NCCc2ccsc2)cc2c(=O)n(C)c3ccccc3c21
    nt, nt, 4, 7, nt
> CCOC(=O)c1cccc(NC(=O)CN(c2ccc(C)cc2)S(=O)(=O)c2c(C)n[nH]c2C)c1
    nt, nt, -1, -1, nt
> O=C(NC1CCN(Cc2ccccc2)CC1)C1CCCN(S(=O)(=O)c2cccc3nonc23)C1 (configuration not stated)
    nt, nt, 4, -3, nt
> NC(=O)c1cc(S(=O)(=O)Nc2cccc(F)c2)co1
    nt, nt, -2, -6, nt
> COc1ccc(-n2c(Cc3cccn3C)nnc2SCC(=O)Nc2ccccc2F)cc1
    nt, nt, -3, 0, nt
> O=C(O)CN1CCN(Cc2ccc(F)cc2Cl)C1=O
    nt, nt, 8, 9, nt
> O=C(NCc1ccco1)c1ccc2nc3sc4c(c3c(=O)n2c1)CCCC4
    nt, nt, 5, -5, nt
> CCn1c(=O)c(C(=O)NCc2ccc(OC)cc2)c(O)c2ccccc21
    i, i, 3, 6, i
> CC1(C)CC(=O)C2=C(C1)N(c1ccc(F)cc1)C(=O)CC2c1cccnc1 (configuration not stated)
    nt, nt, -4, -5, nt
> CCN(CC)CCNC(=O)Cn1cnc2sc(C)c(S(=O)(=O)N3CCOCC3)c2c1=O
    nt, nt, -9, -6, nt
> CCOC(=O)N1CCN(c2c(N3CCC(N4CCCCC4)CC3)c(=O)c2=O)CC1
    nt, nt, 1, 0, nt
> COc1cc(C2=NOC(C(=O)NC3CCCCC3)C2)cc(OC)c1OC (configuration not stated)
    nt, nt, -2, 4, nt
> O=C(NCCN1CCOCC1)c1ccc2c(c1)N(Cc1ccc(F)cc1)C(=O)CS2
    nt, nt, -9, -2, nt
> Cc1cccc(CCNC(=O)c2nnc(Cc3ccc(Cl)cc3)o2)c1
    nt, nt, -1, -1, nt
> Cc1onc(-c2ccccc2Cl)c1C(=O)NCCn1c(C)cc2ccccc21
    i, i, 5, -4, i
> CC(=O)Nc1sc2c(c1C(c1cccs1)N1CCOCC1)CCCC2 (configuration not stated)
    nt, nt, 0, -2, nt
> CCOC(=O)C1C(=O)N(C(=O)c2ccc(OC)cc2)CC1c1ccccc1 (configuration not stated)
    i, i, 6, -2, i
> CCOC(=O)CC1Sc2ccccc2NC1=O (configuration not stated)
    nt, nt, 7, 2, nt
> O=C(NCc1ccc(F)cc1)c1cc2ccccn2n1
    i, i, 1, -1, i
> Cc1nn(C(C)(C)C)c(OC(=O)C2CCCC2)c1S(=O)(=O)c1ccccc1
    nt, nt, 2, -9, nt
> CCOc1ccc(C(=O)N(Cc2ccc(N(C)C)cc2)C2CCS(=O)(=O)C2)cc1 (configuration not stated)
    i, i, 1, 0, i
> CCN(CC)CCCN1C(=O)C(=O)/C(=C(/O)c2ccc3c(c2)CC(C)O3)C1c1ccncc1 (configuration not stated)
    nt, nt, -15, -5, nt
> Cc1cc(C(=O)CSc2nnc(-c3ccco3)o2)c(C)n1CC1COc2ccccc2O1 (configuration not stated)
    i, i, -4, -3, i
> COC(=O)c1ccccc1NC(=O)c1cnc2sccn2c1=O
    i, i, 0, -2, i
> N#CC1=C(N)SC(N)=C(C#N)C1c1ccnc2ccccc12
    nt, nt, 17, 2, nt
> O=C(NC(O)C(=O)c1ccccc1)c1cccs1 (configuration not stated)
    nt, nt, 5, 0, nt
> Cc1ccc(Sc2c(C)[nH]n(C(C)(C)C)c2=O)cc1
    nt, nt, 3, 1, nt
> Cc1ccc(C(=O)CC2(O)C(=O)N(C)c3ccccc32)o1 (configuration not stated)
    nt, nt, 2, 3, nt
> O=C(C1CCC1)N1CCc2cc(S(=O)(=O)NCC3COc4ccccc4O3)ccc21 (configuration not stated)
    nt, nt, 12, 1, nt
> O=C(NCc1ccco1)c1cc(-c2ccc3c(c2)OCO3)on1
    nt, nt, 3, 3, nt

# Next results follow.
# Below each compound: VCAM-1 inhibition, VCAM-1 down imaging, FPR binder, FPRL1 binder, VCAM-1 augmentation
> COc1ccc(C)cc1-n1c(N)c(C#N)c(C#N)c1-c1ccc(OC)c(OC)c1OC
    70, 77%*, 6, 3, i
> O=C(O)C1CC=CCC1C(=O)N1CCN(c2nc(-c3ccccc3)c3ccccc3n2)CC1 (configuration not stated)
    nt, nt, 26, 22, nt
> Cc1noc(C)c1S(=O)(=O)N1CCC(C(=O)Nc2ccccn2)CC1
    i, i, -1, -4, i
> CCOCCCn1c(=S)[nH]c2cc(C(=O)N3CCC(C(N)=O)CC3)ccc2c1=O
    nt, nt, -1, 4, nt
> COCCN(C(=O)Nc1ccc(OC)cc1OC)C1CCN(C(C)=O)CC1
    nt, nt, 0, 2, nt
> COc1cccc(-n2c(SCC(=O)OC(C)C)nnc2-c2cccnc2)c1
    i, i, -4, 1, i
> CCN(c1cccc(C(F)(F)F)c1)S(=O)(=O)c1ccc2c(c1)CCN2C(C)=O
    nt, nt, 3, 0, nt
> CCCN1CCC(NC(=O)Nc2ccc(OC)c(OC)c2)CC1
    i, i, -2, -3, i
> CCc1ccc(-c2nc(CN3CCC(C(=O)NCCc4ccc(OC)c(OC)c4)CC3)c(C)o2)cc1
    nt, nt, 0, 0, nt
> CC(C)CC(=O)Nc1c2c(nn1-c1ccc(F)cc1)CSC2
    nt, nt, 0, -1, nt
> O=C(O)CCN1C(=O)c2ccccc2C1=O
    i, i, 6, -3, i
> O=C(c1noc2c1CCc1ccccc1-2)N1CCOCC1
    i, i, 3, -1, i
> CCCC(=O)Nc1nc2ccc(S(N)(=O)=O)cc2s1
    i, i, -4, 0, i
> COc1ccc(-n2c(=O)c3c4c(sc3n3cnnc23)CC(C)CC4)cc1 (configuration not stated)
    i, i, -2, -5, i
> Cc1ccc(NC(=O)CS(=O)CC(=O)NCC2CCCO2)cc1 (configuration not stated)
    i, i, -2, 4, i
> O=C(Nc1c(F)cc(F)cc1Br)c1cc(-c2ccco2)on1
    nt, nt, -5, 0, nt
> CCOc1ccc(NC(=O)CSc2nnc(Cc3cccn3C)n2-c2ccc(OC)cc2)cc1
    i, i, 1, 1, i
> O=C(NCc1cccnc1)C1c2ccccc2C(=O)N1C1CCCC1 (configuration not stated)
    nt, nt, -7, 7, nt
> Cn1c(SCC(=O)Nc2cccc3ccccc23)nc(O)cc1=O
    i, i, 8, 1, i
> Cc1nn(-c2ccccc2)c(Cl)c1C(=O)NCC(=O)O
    i, i, -5, 3, i
> CC1CCN(c2nc3c(c(=O)[nH]c(=O)n3C)n2CCSc2ncccn2)CC1
    i, i, -2, -1, i
> Cc1cc(=O)oc(C)c1C(=O)NCc1ccccn1
    nt, nt, -13, 0, nt
> Cc1nc(S(=O)(=O)NC2CCCCC2)c(C#N)c(C)c1Cl
    nt, nt, -3, 1, nt
> CCn1c(=O)cc(SCC(=O)N2CCCCC2)c2ccccc21
    nt, nt, 4, 0, nt
> COc1ccc(-c2nc3cc(NC(=O)Cc4ccc(OC)c(OC)c4)ccc3o2)cc1
    i, i, 3, 1, i
> COc1ccc2c(c1)CCc1c(C(=O)Nc3cc(C)n(Cc4ccc(Cl)cc4)n3)noc1-2
    nt, nt, 1, 2, nt
> Cc1cc(C)c(NC(=O)Cn2c(=O)n(Cc3ccco3)c(=O)c3ccccc32)c(C)c1
    nt, nt, 4, -9, nt
> COc1cc(C(=O)N2c3ccccc3CC2C)cc(OC)c1OC (configuration not stated)
    i, i, 1, 7, i
> CCn1cc(C2=NOC(C(=O)Nc3cc(OC)c(Cl)cc3OC)C2)c(C)n1 (configuration not stated)
    nt, nt, 0, 1, nt

# In the list so far, 7 contain a COOH group.
# Below each compound: VCAM-1 inhibition, VCAM-1 down imaging, FPR binder, FPRL1 binder, VCAM-1 augmentation
> COc1ccc(N(CC(=O)Nc2cc(C(=O)O)ccc2C)S(=O)(=O)c2c(C)noc2C)cc1
    nt, nt, 4, 2, nt
> CCOc1cc(C2C(C(=O)O)c3cc(OCC)c(OCC)cc3C(=O)N2C)ccc1O (configuration not stated)
    nt, nt, 4, 5, nt
> COc1ccc(OCCSc2nc3ccccc3n2CC(=O)O)cc1
    i, i, 2, -3, i
> O=C(O)CN1CCN(Cc2ccc(F)cc2Cl)C1=O
    nt, nt, 8, 9, nt
> O=C(O)C1CC=CCC1C(=O)N1CCN(c2nc(-c3ccccc3)c3ccccc3n2)CC1 (configuration not stated)
    nt, nt, 26, 22, nt
> O=C(O)CCN1C(=O)c2ccccc2C1=O
    i, i, 6, -3, i
> Cc1nn(-c2ccccc2)c(Cl)c1C(=O)NCC(=O)O
    i, i, -5, 3, i
